# KCNQ2 block = KCNQ2 potassium channel inhibitors, primary screen, cell-based, CHO-K1, FluxOR thallium flux, B-score (AID 2156); O88943; 20 min; active compounds read low; only compounds with negative scores are shown here; some inactives read as strong as hits; B-score at 10 µM; hit rate 1.1% among 310,000;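 active means fluorescence ratio B-score at most minus 3 library SDs, with starting brightness B-score within 2 library SDs, cut at about -5.5 in these data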
# Target sequence (O88943 whole entry, looked up): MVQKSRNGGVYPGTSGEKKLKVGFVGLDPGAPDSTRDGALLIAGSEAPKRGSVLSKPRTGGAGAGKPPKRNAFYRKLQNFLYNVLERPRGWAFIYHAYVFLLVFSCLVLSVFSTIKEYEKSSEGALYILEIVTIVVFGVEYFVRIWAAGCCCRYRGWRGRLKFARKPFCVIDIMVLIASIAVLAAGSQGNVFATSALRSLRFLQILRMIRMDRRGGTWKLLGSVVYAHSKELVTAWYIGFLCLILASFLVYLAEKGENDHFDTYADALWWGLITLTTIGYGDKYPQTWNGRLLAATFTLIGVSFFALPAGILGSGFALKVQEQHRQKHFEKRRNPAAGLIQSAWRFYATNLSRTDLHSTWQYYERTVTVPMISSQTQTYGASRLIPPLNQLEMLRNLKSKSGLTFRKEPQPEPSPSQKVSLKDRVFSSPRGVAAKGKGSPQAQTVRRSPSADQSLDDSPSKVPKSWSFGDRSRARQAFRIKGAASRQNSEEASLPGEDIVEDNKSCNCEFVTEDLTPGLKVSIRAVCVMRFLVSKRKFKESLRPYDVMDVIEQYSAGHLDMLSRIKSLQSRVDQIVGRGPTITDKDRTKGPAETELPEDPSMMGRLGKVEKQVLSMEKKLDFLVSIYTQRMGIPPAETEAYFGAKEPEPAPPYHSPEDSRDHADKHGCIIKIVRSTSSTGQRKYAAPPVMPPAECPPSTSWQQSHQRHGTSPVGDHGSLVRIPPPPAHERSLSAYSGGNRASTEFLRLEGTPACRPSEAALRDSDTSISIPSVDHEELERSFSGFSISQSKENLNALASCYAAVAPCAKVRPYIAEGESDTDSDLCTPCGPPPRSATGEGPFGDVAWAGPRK
# KCNQ2 block baseline = recorded beside KCNQ2 block, whose call it bears; B-score; measured here: initial fluorescence intensity artifact check;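 brightness before thallium and not channel activity; 0 = typical well and far values either way flag optical interference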
# An asterisk follows results filed as active; i = inactive.
# Every second line gives: KCNQ2 block | KCNQ2 block baseline
O=[N+]([O-])c1ccc(S(=O)(=O)N2CCSC2c2ccco2)cc1 (stereo not given)
  i | -1.3
CCN(Cc1cnn(C)c1)C(=O)C1CCC(=O)N(CCc2ccc(OC)cc2)C1 (stereo not given)
  i | -1
CCN(CC)CCCNC(=O)c1ccc(OCC(=O)Nc2ccccc2C(F)(F)F)c(OC)c1
  i | 0.95
CCOc1ccc(C(=O)NCC(=O)N2CCCC2)cc1
  i | -0.9
O=C(NC(NC(=S)Nc1ccc(Cl)cc1Cl)C(Cl)(Cl)Cl)c1cccc([N+](=O)[O-])c1 (stereo not given)
  i | -0.05
CCOc1ccc(CN(C)C(=O)NNC(=O)c2ccc(C)cc2)cc1OC
  i | -0.27
Cc1ccc(C(=O)NCC(=O)N2CCN(S(=O)(=O)c3cccs3)CC2)s1
  i | 1.1
Cc1ccc2oc(-c3ccc(NC(=O)c4cccnc4)cc3)nc2c1
  i | -1.7
Cc1ccc(NC(=O)c2ccc(S(=O)(=O)NCc3cccnc3)cc2)c(C)c1
  i | 2.2
Nc1cc(=O)nc(SCC(=O)N(C2CCCCC2)C2CCCCC2)n1-c1ccccc1
  i | 1.7
CCc1ccccc1NC(=S)N(CCN1CCCCC1)Cc1ccco1
  i | -1
O=C(CN1CCN(Cc2ccccc2F)C1=O)NCc1ccco1
  i | 1.3
O=C(O)C(CO)N=Cc1c(O)c2ccccc2oc1=O (stereo not given)
  i | 0.45
COc1ccccc1-c1nnc(SCC(=O)c2ccc(C3CCCCC3)cc2)n1Cc1ccco1
  i | 2
CCCCCn1c(=N)c(S(=O)(=O)c2ccc(Cl)cc2)cc2c(=O)n3cccc(C)c3nc21
  i | 0.16
O=C(c1ccco1)N1CCN(CC(O)Cn2c3ccccc3c3ccccc32)CC1 (stereo not given)
  i | -0.04
O=S(=O)(c1ccc(Cl)cc1)N1CCCC1c1nc2ccccc2s1 (stereo not given)
  i | -1
Cc1ccc(NC2CCCN(C(=O)c3ccc(F)cc3)C2)cc1C (stereo not given)
  i | 0.51
CCOc1ccccc1NC(=O)C1=C(C)NC(=O)NC1c1cccs1 (stereo not given)
  i | 0.45
Cc1cc(Cl)ccc1OCC(=O)NN1C(=O)C2C3C=CC(C3)C2C1=O (stereo not given)
  i | -0.85
C(=N\N1CCOCC1)/c1ccsc1
  i | 0.02
COCCN1C=C(C(=O)OC)C(c2cc(Br)c(OC)c(OC)c2)C(C(=O)OC)=C1
  i | 0.05
Cc1nonc1OCCN1CCN(c2ccc([N+](=O)[O-])cc2)CC1
  i | 1.2
Cc1ccnn2cc3c(=O)n(C)c(=O)n(C)c3c12
  i | 5.1
CNC(=O)CC1C(=O)N(c2ccc(F)cc2)C(=S)N1NC(=O)c1ccc(Br)cc1 (stereo not given)
  i | 0.36
CCCCCCCNC(=O)C1(CC2CC(c3cccc(Br)c3)=NO2)CCN(C(=O)CCCCCBr)CC1 (stereo not given)
  i | 0.55
CC1CCCCC1NC(=O)COCc1cc(-c2cccs2)on1 (stereo not given)
  i | -1.6
COc1ccccc1NC(=O)c1c(N=Cc2c(O)ccc3ccccc23)cnn1C
  i | 1
COc1cc(/C=C2/SC(=O)NC2=O)ccc1OC(=O)c1ccco1
  i | 0.01
CCCN1CCN(C(=S)Nc2ccc([N+](=O)[O-])cc2)CC1
  i | 0.62
NS(=O)(=O)c1ccc(NC(=O)COC(=O)COc2ccccc2)cc1
  i | 0.06
O=C(C/C=N/OCc1ccc(F)cc1Cl)c1cnc(-c2ccccc2)s1
  i | 0.49
C=CCNC(=O)NC(=O)CN1C(=O)NC(c2ccccc2)(c2ccccc2)C1=O
  i | -0.95
NNC(=O)c1cc2c(N3CCC(Cc4ccccc4)CC3)ncnc2s1
  i | -2
O=C(Nn1c(=O)[nH]c2ccsc2c1=O)c1ccccc1
  i | 0.09
C=CCNc1ncnc2c1[nH]c1ccc(Cl)cc12
  i | 2.3
COc1cc(/C=N/NC(=O)c2ccncc2)ccc1OCC(=O)Nc1ccc(C)c(C)c1
  i | -1.4
O=C(Nc1cccnc1)c1cc(-c2cccc(Cl)c2)on1
  i | 0.17
COc1ccc(-c2nc(CS(=O)CC(=O)N3CCOCC3)c(C)o2)cc1OC (stereo not given)
  i | -0.51
Cc1ccccc1CN1CCN(CC2CC2)CC1CCO (stereo not given)
  i | 1.6

# A second format for 6 compounds above.
Compound | KCNQ2 block | KCNQ2 block baseline
CC1CCCCC1NC(=O)COCc1cc(-c2cccs2)on1 (stereo not given) | i | -1.6
C=CCNC(=O)NC(=O)CN1C(=O)NC(c2ccccc2)(c2ccccc2)C1=O | i | -0.95
O=C(C/C=N/OCc1ccc(F)cc1Cl)c1cnc(-c2ccccc2)s1 | i | 0.49
Cc1ccccc1CN1CCN(CC2CC2)CC1CCO (stereo not given) | i | 1.6
COc1ccccc1NC(=O)c1c(N=Cc2c(O)ccc3ccccc23)cnn1C | i | 1
Cc1nonc1OCCN1CCN(c2ccc([N+](=O)[O-])cc2)CC1 | i | 1.2

# Further records follow:
# Every second line gives: KCNQ2 block | KCNQ2 block baseline
Cc1cccc(NC(=O)c2ccc3c(c2)C(=O)N(Cc2cccnc2)C3=O)c1C
  i | 0.19
Cc1cccc(N2CCN(C(=O)CCCn3c(=O)c4cccn4c4cccnc43)CC2)c1C
  i | 2.3
Cn1cccc1/C=N/NC(=O)Cc1cccs1
  i | -2.1
CC(=O)Cc1nsc(NC(=O)c2ccc(Cl)cc2Cl)n1
  i | 0.49
CCn1c(SCC(=O)Nc2ccc(S(=O)(=O)Nc3ccccn3)cc2)nnc1-c1ccncc1
  i | -0.69
CCCn1c(CCC(=O)O)nc2cc(S(N)(=O)=O)ccc21
  i | -1.9
COc1ccc(C(=O)NCC(=O)N/N=C/C(C)=C/c2ccccc2)cc1OC
  i | -0.78
COc1ccccc1CN1CCN(S(=O)(=O)c2ccc(C)cc2)CC1
  i | 0.48
Cc1ccc(C(=O)N(C)c2ccc(OCC(=O)N3c4ccc(C)cc4C4CN(C)CCC43)cc2)cc1 (stereo not given)
  i | -0.84
O=C(O)/C=C/C(=O)Nc1ccc(O)cc1
  i | -1.4
Cc1ccsc1C(=O)NCCC(c1ccccc1)c1ccccc1
  i | -1.7
CS(=O)(=O)c1ccc([C@@H](O)[C@@H](CO)NC(=O)C(Cl)Cl)cc1
  i | -0.69
O=C(c1ccccc1)c1ccc(Cn2cc(-c3ccccc3)nn2)cc1
  i | 4.7
O=C1Nc2ccccc2Nc2ccccc21
  i | 0.73
CCOC(=O)Cn1c(=O)oc2cc(S(=O)(=O)N3CCc4ccccc43)ccc21
  i | 0.93
CCN(CC)S(=O)(=O)c1ccc(OC)c(NC(=O)CC2CCCC2)c1
  i | 0.47
COCCNC(=O)C(C)N1c2cccc3cccc(c23)S1(=O)=O (stereo not given)
  i | 0.37
Cc1cc(C)c(C)c(S(=O)(=O)N2CCC(C(=O)NNC(=O)c3ccccc3O)CC2)c1C
  i | 2
Cc1ccc(S(=O)(=O)N2CCCC2)cc1C(=O)O
  i | -0.11
Nc1nnnn1/N=C/c1ccccn1
  i | 0.57
COc1ccc(NC(=O)c2ccc(-c3nn(C)c(=O)c4ccccc34)cc2)cc1C(N)=O
  i | -0.04
CCN1CCN(C(=S)Nc2ccc([N+](=O)[O-])cc2)CC1
  i | -1.2
O=C(CSc1nnc(-c2cccs2)o1)Nc1cccc(S(=O)(=O)N2CCCCC2)c1
  i | -0.6
COc1cccc(OC)c1C(=O)Nc1ccc2c(c1)OCCO2
  i | -0.02
COc1ccccc1OCC(=O)Nc1ccc2c(c1)C(=O)N(CC1CCCO1)C2=O (stereo not given)
  i | 0.11
COc1cccc(CNC(=O)C(CC(C)C)NC(=O)c2ccccc2C)c1 (stereo not given)
  i | 2.5
O=C(CNC(=O)c1ccc(Br)o1)NC12CC3CC(CC(C3)C1)C2
  i | 0.05
CC(C)CC(=O)NC(c1ccccc1Cl)c1c(O)ccc2ccccc12 (stereo not given)
  i | -0.05
COC(=O)C1=C(N)Oc2cc(C)n(CCCn3ccnc3)c(=O)c2C1c1ccc(Cl)cc1 (stereo not given)
  i | 2.3
O=c1[nH]c(Cc2ccccc2Cl)nc2ccccc12
  i | 0.75
Cc1ccc(-n2nc3c(=O)n(CCCC(=O)NCC(C)c4ccccc4)nc(C)c3c2C)cc1 (stereo not given)
  i | -1.6
COC(=O)c1sccc1NC(=O)c1ccc(Br)o1
  i | -0.19
COc1ccc(-c2noc(Cc3cccs3)n2)cc1
  i | 1.6
CC(=O)N1C(=O)CC(C)N(C(C)=O)c2ccc([N+](=O)[O-])cc21 (stereo not given)
  i | -0.37
CN(C)c1ccc(/C=C/c2nc3ccccc3c(=O)n2CCO)cc1
  -6* | 3.3*
CCCNS(=O)(=O)c1ccc(CCC(=O)NCc2ccco2)cc1
  i | -0.41
COc1ccc2oc(C(=O)Nc3ccc(S(=O)(=O)N(C)C4CCN(C)CC4)cc3)c(C)c2c1
  i | 0.9
COc1ccc(-c2ccnc(SCC(=O)N3CCOCC3)n2)cc1
  i | -1.9
COc1ccc(NCC(=O)N/N=C2\CCc3ccccc32)cc1
  i | 0.87
COc1ccc(C(=O)N=C2SC3CS(=O)(=O)CC3N2Cc2ccccc2)cc1OC (stereo not given)
  i | -0.05
COc1ccccc1Oc1coc2cc(OCC(N)=O)ccc2c1=O
  i | -0.16
O=[N+]([O-])c1ccc(-c2nnc(S)n2-c2ccccc2)cc1
  i | -0.03
CCc1ccc(NC(=S)NC2CCN(Cc3ccccc3)CC2)cc1
  i | -1.2
COc1ccccc1-n1c(SCC(N)=O)nc2c(c1=O)SCC2
  i | -1.1
CN(C(=O)c1cc2n(n1)C(C(F)(F)F)CC(c1ccco1)N2)c1ccccc1 (stereo not given)
  i | 1.6
CC1(C)CC(=O)C=C(Nc2ccc(F)cc2F)C1
  i | -0.75
CN(C)CCN(C(=O)c1ccc(N2C(=O)CCC2=O)cc1)c1nc2cc3c(cc2s1)OCO3
  i | 0.28
CC(=O)N1c2ccc(S(=O)(=O)N3CCCC(C(=O)N4CCCCC4)C3)cc2CC1C (stereo not given)
  i | -0.15
O=C(NCCCN1CCN(c2ccc(F)cc2)CC1)C1CCCN(c2ncnc3c2nc2n3CCCCC2)C1 (stereo not given)
  i | -2
Cc1ccc(OCC(=O)Nc2ccc(C(=O)O)cc2NC(=O)COc2ccc(C)c(C)c2)cc1C
  i | -1.9
Cc1ccc(C(=O)N/C(=C/c2cccs2)C(=O)NCCc2c[nH]c3ccccc23)cc1
  i | 0.45
CN(C)c1ccc(/C=C2\NC(=S)N(Cc3ccccc3)C2=O)cc1
  i | 8.2
CC1=CC(C)(C)N(C(=O)c2ccc(F)cc2)c2cc3c(cc21)OCO3
  i | 0.11
O=S1(=O)c2cccc3cccc(c23)N1CCBr
  i | -0.16
COCCNC(=O)c1cc(-c2cccc(OC)c2)on1
  i | 0.03
CC(C)CN1C(=O)c2ccc(NC(=O)c3cccs3)cc2C1=O
  i | -0.24
COc1ccc(/C(O)=C/c2nc3ccccc3n(-c3ccccc3)c2=O)cc1
  i | -0.86
Cc1cc(C)n(-c2ccc(C(=O)C(C#N)c3nc4ccccc4n3C)cc2)n1 (stereo not given)
  i | -1.2
CCOc1ccc(NC(=S)NCCCc2ccccc2)cc1
  i | 0.49
COc1nc(NCC(C)C)nc(Oc2ccc(OCc3ccccc3)nn2)n1
  i | -0.49

# Going on with the list.
# Every second line gives: KCNQ2 block | KCNQ2 block baseline
COc1ccc(/C=C/C(=O)N2CCCc3ccccc32)c(OC)c1
  i | 0.49
Cc1ccc(N2C(=O)N(CC(=O)Nc3cccc(Cl)c3)C(=O)C2C)cc1 (stereo not given)
  i | 0.09
CC1=CC(c2ccc(Cl)cc2)n2nc(N3C(=O)CCC3=O)nc2N1 (stereo not given)
  i | -0.84
CC(C)C(=O)c1cc2c(cc1NC(=O)c1cccs1)OCCO2
  i | 2.3
O=C(NCC1CCCO1)c1ccc2c(c1)N(Cc1ccccc1)C(=O)CS2=O (stereo not given)
  i | 1.6
CCCCN(C)CCNS(=O)(=O)c1ccc2c(c1)n(C)c(=O)c(=O)n2C
  i | 0.87
COc1cccc(/C=N/NC(=S)NC2CC3CCC2C3)c1OC (stereo not given)
  i | -0.85
CC(=O)Nc1ccc2nc3c(=O)n(C)c(=O)n(C)c3nc2c1
  i | 3
COC(=O)c1sccc1NC(=O)c1csc2c1CCCC2
  i | 0.56
COc1cc(-n2c(-c3ccccc3)n[nH]c2=S)c(OC)cc1Cl
  i | -0.89
Cc1ccc(C(=O)CN(C(=O)c2ccc(Cl)c(Cl)c2)N2C(=O)C3CCCCC3C2=O)cc1 (stereo not given)
  i | -0.86
Nc1nonc1-n1nnc(C(=O)N/N=C/c2ccc(OCc3ccccc3)cc2)c1COc1ccc(F)cc1
  i | 0.06
Cc1cc(C(=O)COC(=O)Cc2n[nH]c(=O)c3ccccc23)c(C)n1-c1cccc(C(F)(F)F)c1
  i | 1.7
NC[C@@]12CCCC1C1CCC2C1 (stereo not given in full)
  i | -1.3
COc1ccc(CNCC(O)COCc2cccs2)cc1 (stereo not given)
  i | -0.05

# Pulled by compound from the entries so far (four):
# Every second line gives: KCNQ2 block | KCNQ2 block baseline
O=C(NCC1CCCO1)c1ccc2c(c1)N(Cc1ccccc1)C(=O)CS2=O (stereo not given)
  i | 1.6
NC[C@@]12CCCC1C1CCC2C1 (stereo not given in full)
  i | -1.3
COc1cc(-n2c(-c3ccccc3)n[nH]c2=S)c(OC)cc1Cl
  i | -0.89
CC(C)C(=O)c1cc2c(cc1NC(=O)c1cccs1)OCCO2
  i | 2.3

# Screening data as filed in PubChem.

# Some of the compounds tested; the hit share may differ from the screen's.
